PV pol inh = inhibitors of poliovirus RNA polymerase binding and polymerization; poliovirus polymerase elongation, fluorescence polarization; hits give low values; % elongation, % (compound at 16.7 µg/mL); 150,000 compounds, 0.66% hits; AID 588519; in the data active = % elongation below about 90%; also: some results filed as inactive read as strong as hits
Target sequence (P03300 1749-2209 limits assumed): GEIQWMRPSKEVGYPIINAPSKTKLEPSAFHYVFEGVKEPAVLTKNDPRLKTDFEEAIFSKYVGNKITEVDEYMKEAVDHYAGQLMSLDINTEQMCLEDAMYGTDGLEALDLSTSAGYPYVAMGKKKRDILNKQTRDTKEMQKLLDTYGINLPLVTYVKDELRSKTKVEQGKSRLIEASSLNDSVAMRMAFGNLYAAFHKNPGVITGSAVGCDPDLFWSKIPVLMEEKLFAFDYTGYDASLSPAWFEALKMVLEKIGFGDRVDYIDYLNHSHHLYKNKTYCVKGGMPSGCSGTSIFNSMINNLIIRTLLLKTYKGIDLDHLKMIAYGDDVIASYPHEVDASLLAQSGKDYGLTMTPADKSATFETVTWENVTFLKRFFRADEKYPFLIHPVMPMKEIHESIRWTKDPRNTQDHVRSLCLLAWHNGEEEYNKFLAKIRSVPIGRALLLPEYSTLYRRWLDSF
MenB inh = Mtb MenB enzyme inhibition. MenB enzyme assay, absorbance read-out; some hits fall short of the stated cut. AID 540299. inhibition, %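 (about 12 µg/mL by stock and volumes)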. P9WNP5. 100,000 compounds, 0.43% hits;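 active = mean of two replicates above 30%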;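 also: 0% = no compound and 100% = wells with inactive enzyme; the first replicate is given; strong numbers were not always called active; inactives centre near -10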
Target sequence (P9WNP5 whole entry, looked up): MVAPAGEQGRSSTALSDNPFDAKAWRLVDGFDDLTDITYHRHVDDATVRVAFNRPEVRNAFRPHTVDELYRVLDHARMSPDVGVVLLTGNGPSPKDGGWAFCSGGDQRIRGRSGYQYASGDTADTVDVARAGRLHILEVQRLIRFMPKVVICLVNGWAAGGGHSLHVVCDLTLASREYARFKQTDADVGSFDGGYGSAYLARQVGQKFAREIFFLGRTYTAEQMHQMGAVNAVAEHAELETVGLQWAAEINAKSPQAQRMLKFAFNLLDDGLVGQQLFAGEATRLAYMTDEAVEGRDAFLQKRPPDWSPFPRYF
MbtI inh = inhibitors of Mycobacterium tuberculosis siderophore enzyme MbtI; P9WFX0; purified MbtI enzyme, fluorescence intensity read-out; 100,000 compounds, 0.89% hits; inhibition, %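 (about 17 µg/mL by stock and volumes)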;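 active = above 50% in both replicates, above 80% if mildly self-fluorescent; inactive = the rest, strongly fluorescent compounds included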;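 also: 0% = mean of negative and 100% = mean of positive controls; one replicate is shown; some compounds called inactive have numbers as strong as hits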
PV pol inh intensity = also measured in PV pol inh; calls as there; % elongation; measured here: total intensity read-out; formula for this scale not given here;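 total fluorescence in place of polarization; lower means less elongation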
* = called active by the depositor; . = not tested or not shown; & = joins results of further samples.

No.	compound	PV pol inh	PV pol inh intensity	MenB inh	MbtI inh
1	O=C(NCCO)c1c2c(nc3ccccc13)CCCC2	100	101	3	.
2	Cc1c(S(=O)(=O)c2ccc(Cl)cc2)csc1C(=O)N(Cc1ccccc1)Cc1cccnc1	101	96	-3	-7
3	CCOC(=O)C(O)(c1ccc(NC(=O)NC)cc1)C(F)(F)F (configuration not stated)	103	104	-8	-6
4	CCOC(=O)c1c(-c2ccccc2)csc1/N=C/C1C(=O)CCCC1=O	101	110	-12	-4
5	CCCN(CCC)C(=O)Cn1c(=O)n(CCCCC(=O)NC2CCCC2)c(=O)c2ccccc21	100	101	11	-4
6	O=C1/C(=C/c2ccc(O)cc2)CS(=O)(=O)c2ccccc21	102	106	-78	2
7	O=C(NCc1ccncc1)c1cccc(Oc2ccccc2)c1	100	100	-21	-4
8	C(=N\c1ncn[nH]1)/c1cccs1	.	.	-19	4
9	CC(=O)N1CCC(N(CCN2CCOCC2)C(=O)Nc2ccccc2)CC1	100	102	-7	-1
10	CCC(C(=O)OC(C)C)n1cnc2sc3c(c2c1=O)CCC(C)C3 (configuration not stated)	100	101	-2	-5
11	OCCNc1nc2ccccc2n1Cc1ccccc1Cl	105	103	-7	-1
12	CC(C)CCNC(=O)c1ccc(CS(=O)(=O)c2cccc(C(F)(F)F)c2)o1	102	98	-18	10
13	O=C1CN(Cc2nc3ccc(Cl)cc3n2CCO)c2ccccc2N1	104	117	-12	2
14	O=C(CNC(=O)c1ccc(-c2ccccc2)cc1)OC1CCOC1=O (configuration not stated)	102	98	-35	-23
15	COCCn1c(C)cc(C(=O)COC(=O)c2ccc(NC(=O)CC#N)cc2)c1C	126	134	1	-1

The listing continues.
No.	compound	PV pol inh	PV pol inh intensity	MenB inh	MbtI inh
16	CSc1ncc2c(=O)n(CC3CCCO3)ccc2n1 (configuration not stated)	100	102	2	8
17	Cc1ccc(-c2ccc(NC(=O)C3C4C=CC(C4)C3C(=O)O)cc2)o1 (configuration not stated)	104	110	8	-61
18	CC(=O)NC(=O)NCc1ccccc1	108	93	-27	-4
19	CC(C)(C)c1cc(-c2cccs2)c(C#N)c(SCC(=O)Oc2ccccc2)n1	102	96	-7	.
20	O=C(Nc1ccccc1)N1CCc2ccccc21	102	104	2	-5
21	CC(C(=O)N1CCc2ccccc21)N1CCN(S(=O)(=O)c2ccc(Cl)cc2)CC1 (configuration not stated)	105	109	-40	-2
22	O=C(O)C1CCc2ccccc2O1 (configuration not stated)	102	98	1	-1
23	CC(C)(C)c1ccc(C(=O)NCCC(=O)Nc2nn3cnnc3s2)cc1	107	114	-10	-4
24	Cc1n[nH]c(C)c1S(=O)(=O)N1CCC2(CC1)OCCO2	100	99	-14	-1
25	CC(C)(C)NC(=O)c1cccc(NC(=O)Cc2cccs2)c1	100	109	7	.
26	CCCN(CCC)C(=O)Cn1ncc2c(=O)oc3ccccc3c21	99	101	11	4
27	NS(=O)(=O)c1ccc(CCNC(=O)c2ccncc2)cc1	105	100	4	0
28	O=P(O)(CN1CCCCCC1)C1Cc2ccccc2C1	97	108	1	-7
29	CCSc1nnc(C2CCN(CC(=O)Nc3ccc(N4CCCCCC4)cc3)CC2)n1C	103	102	-53	-3
30	O=S(=O)(CCN1CCC(n2cccc2)CC1)c1ccc(F)cc1	108	101	7	-2

Part of the list above, with values under each structure.
The line under a structure holds: PV pol inh | PV pol inh intensity | MenB inh | MbtI inh
27	NS(=O)(=O)c1ccc(CCNC(=O)c2ccncc2)cc1
    105 | 100 | 4 | 0
28	O=P(O)(CN1CCCCCC1)C1Cc2ccccc2C1
    97 | 108 | 1 | -7

Complete entries, looked up by structure. Order of values: PV pol inh	PV pol inh intensity	MenB inh	MbtI inh
Entry for O=C(O)C1CCc2ccccc2O1 (configuration not stated) → 102	98	1	-1
Entry for CCCN(CCC)C(=O)Cn1c(=O)n(CCCCC(=O)NC2CCCC2)c(=O)c2ccccc21 → 100	101	11	-4
Entry for Cc1c(S(=O)(=O)c2ccc(Cl)cc2)csc1C(=O)N(Cc1ccccc1)Cc1cccnc1 → 101	96	-3	-7
Entry for C(=N\c1ncn[nH]1)/c1cccs1 → .	.	-19	4
Entry for COCCn1c(C)cc(C(=O)COC(=O)c2ccc(NC(=O)CC#N)cc2)c1C → 126	134	1	-1

(more compounds)
No.	compound	PV pol inh	PV pol inh intensity	MenB inh	MbtI inh
31	COc1ccc(C2C3=C(CCCC3=O)Nc3n[nH]c(-c4ccccc4)c32)cc1 (configuration not stated)	104	103	-9	-29
32	CC(C)(C)P(=NC(=S)N1CCCCCC1)(N1CCOCC1)N1CCOCC1	106	109	-15	1
33	Cc1cc(C(=O)NC2CCC(O)CC2)c(C)o1 (configuration not stated)	102	99	-16	3
34	Cn1nc(CC(=O)Nc2nncs2)c2ccccc2c1=O	105	102	-54	16
35	Clc1cccc(CSc2nnc3ccccn23)c1	105	104	.	30
36	CC(C)(C)C(=O)COC(=O)c1ccc(S(=O)(=O)N2CCOCC2)cc1	103	108	-17	-29
37	CN1C(=O)NC(c2ccc(Cl)cc2)C2=C1CC(C)(C)CC2=O (configuration not stated)	102	102	-21	-8
38	O=C(CN1CCOCC1)N(C1CCCCC1)C1CCS(=O)(=O)C1 (configuration not stated)	101	102	-4	-6
39	CCn1c(C(=O)N2CCCC(C(=O)NCCCc3ccccc3)C2)cc2sccc21 (configuration not stated)	104	102	-22	-2
40	OC1(CCC2(O)CCCC2)CCCC1	100	104	28*	-5
41	O=C(CCc1ccsc1)Nc1nc2ccccc2[nH]1	99	114	-8	2
42	O=C(CCNc1n[nH]c(=O)[nH]c1=O)NCc1ccco1	106	110	-8	.
43	O=C(CSc1nnnn1-c1ccccc1)N(C1CCCCC1)C1CCCCC1	102	103	-1	-8
44	NS(=O)(=O)c1ccccc1C(=O)N1CCN(C(=O)c2ccccc2S(N)(=O)=O)CC1	109	112	-1	.
45	NC(=O)NCCc1ccccc1	108	112	-6	-12

More entries.
No.	compound	PV pol inh	PV pol inh intensity	MenB inh	MbtI inh
46	O=C(NCCCN1CCOCC1)c1cc2sc3ccccc3c2s1	96	102	-1	100
47	CCN(CC)c1ccc(C(=S)N2CCN(CCO)CC2)cc1	100	102	-74	17
48	NC(=O)c1cccc(CNC(=O)c2ccccc2C(N)=O)c1	105	102	5	-20
49	CCC(=O)OC1(c2ccccc2)C(C)CN(C)CC1C (configuration not stated)	108	115	-1	.
50	CCN1C(=O)c2cccc3c(NC(=O)c4cccc(OC)c4)ccc1c23	101	105	-14	0
51	Cc1ccc(P2(=S)N=C3c4ccccc4CN3c3cc(N(C)C)ccc32)o1 (configuration not stated)	104	109	-21	2
52	CCOc1ccc(-c2n[nH]c(=S)n2CC)cc1	101	103	-6	14
53	O=C(NCC(=O)N1CCCCCC1)c1cccs1	105	98	10	-2
54	Cc1cc(C(=O)ONC(=O)c2ccco2)nn1-c1cc(Cl)ccc1Cl	102	104	-26	-1
55	O=C(Cc1ccccc1)NN(c1ccccc1)c1ccccc1	103	109	-21	.
56	NC(=O)c1cc(S(=O)(=O)NC2CCCc3ccccc32)cs1 (configuration not stated)	105	104	-16	-6
57	NC(=O)COC(=O)c1ccc(Cl)c(S(=O)(=O)N2CCCCCC2)c1	102	108	-17	-2
58	FC(F)(F)c1cc(Cl)nc(-c2ccccc2)n1	100	105	-17	-11
59	O/N=C\c1cn(-c2ccccc2)nc1-c1ccc(Br)cc1	104	107	.	-7
60	Nn1c(SCc2cccc(Br)c2)nnc1-c1ccccc1	101	102	-2	-17

(list continues)
No.	compound	PV pol inh	PV pol inh intensity	MenB inh	MbtI inh
61	O=C(CCc1nc2ccccc2c(=O)[nH]1)Nc1ccc(F)cc1	100	110	-13	7
62	CC1CN(C(=O)COC(=O)/C=C/c2ccc(C(F)(F)F)cc2)CC(C)O1 (configuration not stated)	103	97	15	4
63	CC(c1ccccc1)N1C(=O)c2ccccc2C1Nc1ccc(F)cc1 (configuration not stated)	103	104	-5	-5
64	CN(C(=S)NC(=O)C1CC1)c1ccccc1	98	104	14	19
65	NC(=Nc1ccc(Cl)cc1)c1ccccc1	103	107	.	-2
66	CC(=O)NC(Cc1c[nH]c2ccccc12)C(=O)OCc1nc(N)nc(Nc2ccccc2C)n1 (configuration not stated)	105	109	-11	3
67	Cc1ccc(F)cc1NC(=O)/C=C\C(=O)O	102	103	4	-12
68	CC(C)NC(=S)Nc1ccc2[nH]c(=O)[nH]c2c1	99	102	1	13
69	CC(C)(C)c1ccc(/C=N/n2cnnc2)cc1	102	98	3	7
70	O=C(O)COc1cccc(Br)c1	98	97	.	-11
71	COc1cc(OC)c(CN2CCN(c3ccccc3C)CC2)cc1Br	100	100	-2	1
72	Cc1oc2ccccc2c1CC(=O)Nc1ccc(C(F)(F)F)cc1	100	102	-12	-2
73	COc1ccc(/C=C/C(=O)N2CCN=C2c2ccccc2)cc1OC	102	103	-15	64
74	COc1cccc(NC(=O)NCc2c(-c3ccccc3)noc2C)c1	100	99	15	0
75	NNc1nnc(-c2ccccc2)c2ccccc12	103	105	.	0

New compounds follow.
No.	compound	PV pol inh	PV pol inh intensity	MenB inh	MbtI inh
76	O=c1c2ccccc2nc2c3ccccc3c(N3CCOCC3)nn12	102	100	-18	-15
77	O=C(CSc1nnc(C2CC2)n1Cc1ccco1)c1ccc2[nH]c(=O)oc2c1	102	105	-19	6
78	COc1cccc(C2C(C#N)=C3N=C(N)c4ccccc4N3C3=C2C(=O)CCC3)c1 (configuration not stated)	101	103	-21	8
79	COc1cc2c(cc1OC)C(C)N(C(=O)c1cc3c(C)cc(C)cc3[nH]1)CC2 (configuration not stated)	108	110	7	3
80	CSc1ccc(C(=O)Nc2nnc(C3=COCCO3)o2)cc1	107	107	-21	4
81	CC1=Nc2ccccc2N=C(NC(=O)CSC(=S)N2CCCCC2)C1c1ccccc1 (configuration not stated)	105	112	-23	.
82	CC1SC2=NNC(c3ccc(Cl)cc3)=CN2C1=O (configuration not stated)	103	102	-10	.
83	CCSc1nnc(C(N)Cc2ccccc2)o1 (configuration not stated)	99	96	13	-3
84	O=c1cc(-c2ccc(F)cc2)[nH]n1-c1nc2ccccc2[nH]1	105	102	-133	24
85	COC(=O)c1ccccc1N=C(C)C1=C(O)c2ccccc2C1=O	103	100	-20	18
86	O=C(NCc1ccccc1)NCc1ccccc1	104	105	9	3
87	Cc1cc(C)n(CCCNCc2ccc(OCc3csc(C)n3)cc2)n1	99	100	-13	-5
88	Cc1nc2c(-c3ccccc3)c(C)nn2c(C)c1CC(=O)NCCN1CCOCC1	101	102	-26	5
89	CCCN(CCC)C(=O)Cn1c(=O)n(Cc2ccc(C(=O)NCc3ccco3)cc2)c(=O)c2ccccc21	101	101	-2	-2
90	O=C(Nc1cc(C(F)(F)F)ccc1Cl)C1=COCCO1	104	104	5	-15

Next part
No.	compound	PV pol inh	PV pol inh intensity	MenB inh	MbtI inh
91	CN1N=C2c3ccccc3CCCC2C1c1ccc2c(c1)OCO2 (configuration not stated)	105	105	-4	-10
92	CNCc1ccc(SC)cc1	104	110	7	-6
93	Cc1c(Cl)cccc1NC(=S)N(C1CCCCC1)C(C)c1cccnc1 (configuration not stated)	101	105	-13	0
94	O=C(Nc1ccc(SC(F)F)cc1)C1=COCCO1	104	107	-25	15
95	CC(=C1C(=O)c2ccccc2C1=O)N1CCN(c2cccc(Cl)c2)CC1	101	102	-36	3
96	CC(Cc1cccs1)N(Cc1ccc(Cl)cc1)C(=O)c1ccncc1 (configuration not stated)	100	102	.	-3
97	O=C(CSc1ccc(S(=O)(=O)N2CCCCC2)cn1)N1CCCC1	106	114	-12	11
98	Cc1cc(C)c(C)c(Cn2cnc3ccccc32)c1C	106	107	-88	-8
99	O=C(Nc1ccc(-c2nnc3n2CCCCC3)cc1)c1ccco1	103	100	.	1
100	CC1CN(C(=O)CSc2nc3c(cnn3-c3ccccc3)c(=O)[nH]2)CC(C)O1 (configuration not stated)	102	98	-8	10
101	Clc1ccc2nc3c4ccccc4cnn3c2c1	101	101	-8	-10
102	CSC1=C(C#N)C(c2ccc(C)cc2)CC(=O)N1 (configuration not stated)	102	103	14	0
103	C[C@@H]1CC[C@H]2[C@@H](C)C(=O)O[C@@H]3OC4(C)CC[C@@H]1[C@]32OO4	99&98	102&95	2&-19	-4&2
104	CCN(CC)CCSc1nc(O)c(C)c(=O)[nH]1	105	94	-18	11
105	COc1cc(OC)c(OC)cc1CN1CCN(c2ccccc2F)CC1	100	101	-52	6

High-throughput results as filed in PubChem.
